Screens deposited in PubChem BioAssay by National Center for Advancing Translational Sciences (NCATS).
gsp antagonist: gsp mutant antagonism | gsp-mutant cells, cAMP HTRF, 30 min; control for the full effect not named in the record | Potency, µM (top dose mostly 76.9 µM), for the others: at the top dose activity change, negative = inhibition, most hits filed as inhibitors | hit rate 0.4% among 340,000; active = falling curve of any shape with a large fitted effect; inconclusive = falling curve, mostly with a smaller effect; inactive = flat or rising curve; cell line not stated here;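 note: intracellular cAMP measured with PDE inhibitor Ro 20-1724 present during compound exposure; potency is the fitted concentration of half-maximal effect; % is set by controls: 0 for no effect and ±100 for the full control effect; nearly all actives have a fitted effect of over 65% in size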
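HTRF cAMP measurement after 30 min RT detection following 30 min, 37C compound treatment alongside […] (added as 300 uM solution) in G418-selected cells seeded at 2000/well and grown 16–24 h.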
CtBP-E1A blk: inhibitors of CtBP/E1A interaction. AlphaScreen GST-E1A/His-CtBP binding, 1536-well; active compounds read low; control for the full effect not named in the record. activity change, % (test concentration not listed). hit rate 0.49% among 340,000. AID 651724; in the data active means activity change below about -65%; inconclusive means about -30% to -65%; inactive means above about -30%; note: % is set by controls: 0 for no effect and ±100 for the full control effect
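Steps: dispense buffer (Tris pH 8.0, NaCl 300 mM, TCEP 1 mM, BSA, Tween 20); add 5X protein mix (GST-E1A, His-CtBP, 125 nM each); pin 23 nL compound; 2 h at 37 °C, dark; add 5X beads (50 ug/mL); 1 h; read.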
Sfp PPTase inh: blocks B. subtilis Sfp PPTase activity | Biochemical Sfp PPTase activity, qHTS | hit rate 3.5% among 310,000 | Potency, µM, without a hit: max response, negative = inhibition, actives largely listed as inhibitors; active = well fitted inhibition curve with a large enough effect; inconclusive = small, poorly fitted or top-dose-only effect, or another doubt; inactive = no such curve, though single readings can be large or run the other way;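 note: the enzyme is Sfp with the accession as filed and its product quenches rhodamine fluorescence; potency is the fitted concentration of half-maximal effect; 0% = enzyme reaction without inhibitor and -100% = no enzyme wells; top concentration of the series not given in the record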
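Step 1, compound plus 15 nM Sfp-PPTase, 15 min, room temperature. Step 2, add rhodamine-CoA (5 uM) and BHQ-2-YbbR (12.5 uM). Step 3, read 525/598 nm fluorescence at 0 and 30 min.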
gsp agonist: agonists of gsp mutant (McCune-Albright syndrome) | gsp mutant cells, cAMP HTRF, 30 min; control for the full effect not named in the record | Potency, µM (doses to about 76.9 µM), for inactives: at the top dose activation (cAMP increase), most hits filed as activators | hit rate 0.13% among 340,000; active = well fitted activation curve with a large enough effect; inconclusive = small, poorly fitted or top-dose-only effect, or another doubt; inactive = no such curve, though single readings can be large or run the other way; cell line not stated here;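 note: phosphodiesterase inhibitor Ro 20-1724 added with compounds to block cAMP breakdown; potency is the fitted concentration of half-maximal effect; nearly all actives have a fitted effect of over 60% in size; about a fifth of the inactives were tested at one dose only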
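Cells stably selected in G418 were plated at 2000/well, grown 16-24 hr, then given compounds in DMSO with the PDE inhibitor […] (300 uM solution added) for 30 min at 37C; cAMP was read by HTRF.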
ClpP mod: qHTS Assay for Activators of ClpP; AID 651965, 2013; purified B. subtilis ClpP, FRET peptide cleavage, 20 min; hit rate 1.9% among 340,000; Potency, µM (doses to about 57.5 µM), inactives show top-dose activity change, negative = active; active = well fitted falling curve with a large enough effect; inconclusive = small, poorly fitted or top-dose-only effect; inactive = no such curve, though single readings can be large or run the other way; note: potency is the fitted concentration of half-maximal effect; the source files actives as falling curves though it sought activators and does not explain the sign; nearly all actives have a fitted effect of over 65% in size; many hits overshoot -100%
Target sequence (P80244 whole entry, looked up): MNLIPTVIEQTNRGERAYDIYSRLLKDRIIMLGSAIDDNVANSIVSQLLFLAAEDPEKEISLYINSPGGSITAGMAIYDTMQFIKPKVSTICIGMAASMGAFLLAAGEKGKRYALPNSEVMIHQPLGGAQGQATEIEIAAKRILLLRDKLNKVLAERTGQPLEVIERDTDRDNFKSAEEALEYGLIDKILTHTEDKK
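Purified B. subtilis ClpP, 10 microg/mL final in Tris/HCl pH8 with KCl, BSA, glycerol and Tween-20, cleaved an Abz/nitrotyrosine-quenched decapeptide. Fluorescence (ex 320, em 430) was read at 0 and 20 min at room temperature. Delta was normalized to 5.8 microM ADEP and DMSO/no-enzyme controls.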
TRPV1 potentiator: potentiators of human vanilloid receptor 1 (TRPV1). potentiation, % at 8.33 µM. Q8NER1. hit rate 0.02% among 320,000. TRPV1-expressing cells, Fluo-8 calcium influx, capsaicin EC20 potentiation; host cell line not named in the record; control for the full effect not named in the record; active means potentiation above 80%; inconclusive means 30% to 80%; inactive means below 30%; note: 0% is about no effect
Target sequence (Q8NER1 whole entry, looked up): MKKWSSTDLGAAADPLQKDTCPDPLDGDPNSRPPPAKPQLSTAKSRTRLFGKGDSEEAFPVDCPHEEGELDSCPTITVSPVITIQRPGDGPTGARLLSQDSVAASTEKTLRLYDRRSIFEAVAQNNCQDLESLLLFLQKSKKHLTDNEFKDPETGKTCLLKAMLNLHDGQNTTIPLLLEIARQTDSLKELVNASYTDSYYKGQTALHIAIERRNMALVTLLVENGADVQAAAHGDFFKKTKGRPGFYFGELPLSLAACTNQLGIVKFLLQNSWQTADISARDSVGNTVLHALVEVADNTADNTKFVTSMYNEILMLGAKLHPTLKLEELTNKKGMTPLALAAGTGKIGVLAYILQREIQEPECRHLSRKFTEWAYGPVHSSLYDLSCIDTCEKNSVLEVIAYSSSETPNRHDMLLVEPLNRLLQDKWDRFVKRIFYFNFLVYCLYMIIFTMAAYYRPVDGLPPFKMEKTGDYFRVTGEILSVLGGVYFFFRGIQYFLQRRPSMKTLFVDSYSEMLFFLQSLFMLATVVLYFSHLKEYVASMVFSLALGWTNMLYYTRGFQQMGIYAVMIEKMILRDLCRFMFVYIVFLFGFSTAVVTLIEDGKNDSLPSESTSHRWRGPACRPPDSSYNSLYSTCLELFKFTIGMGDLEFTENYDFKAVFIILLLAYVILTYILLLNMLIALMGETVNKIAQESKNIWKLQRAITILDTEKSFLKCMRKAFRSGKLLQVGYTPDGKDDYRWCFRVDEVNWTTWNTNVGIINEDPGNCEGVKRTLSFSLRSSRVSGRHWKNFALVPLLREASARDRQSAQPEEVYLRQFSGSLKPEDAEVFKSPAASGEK
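Fluo-8 calcium influx in TRPV1-expressing cells, kinetic read (ex 480/em 520 nm). Compound added and read 3 min for agonist activity, followed by capsaicin at EC20 final and 2 min further read for enhancement.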
Menin-MLL FL inh: inhibitors of human menin-MLL interaction, wild-type MLL peptide. FP activity change, % at 61.4 µM. Fluorescence polarization, fluorescein-MLL peptide displacement from menin. AID 1766. 290,000 tested, under 10 active; inconclusive = falling polarisation curve, or a change in total fluorescence; inactive = total fluorescence flat and polarisation flat or rising; no compound was filed as active; the % refers to the polarisation; negative = inhibition;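 note: % of control where 0% means no effect; inhibitors lower the polarisation; unlabelled MLL peptide was the positive control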
An asterisk follows results filed as active; ? = inconclusive; . = no result given; & = joins results of further samples; [ ] = another dose, or the depositor's remark.

SMILES	gsp antagonist	CtBP-E1A blk	Sfp PPTase inh	gsp agonist	ClpP mod	TRPV1 potentiator	Menin-MLL FL inh
Cc1ccc2c(c1)c1c3n2CCN(C(=O)C2CC2)C3CCC1 (stereo not given)	-7%	-4	?	?	?	-4	?
CCc1ccccc1NC(=O)Cn1nnc(C(=O)NCc2cccs2)c1N	2%	5	8%	-10%	-1.5%	-7	-0.6
Cc1cc(C)c(NC(=O)CN2CCN(C)CC2)c(C)c1	7%	0	4%	?	-1.5%	18	-2.5
Cc1ccc(S(=O)(=O)Nc2c(C)cc(C)nc2Cl)cc1	13%	10	5%	2%	0.2%	2	-3.7
COc1ccc2nc(Nc3nc(CSc4nnc(C)s4)cc(=O)[nH]3)nc(C)c2c1	.	.	3%	.	.	-9	6.4
COc1cc(/C=N/NC(=O)c2ccccc2)ccc1OS(=O)(=O)c1ccccc1	-26%	-4	12%	-62%[inhibitor]	1.2%	-9	0.4
COc1ccc2c(c1)CC/C(=C\C=C\c1ccccc1)C2=O	-32%	-9	28µM*	17%	-7.5%	-11	0.7
COc1ccc(/C=C2\CCC(C3CCCC3)C2=O)cc1 (stereo not given)	0%	1	10%	20%[15.4 µM]	-4.5%	-3	-1.4
CCOc1ccc(CN2CCNC(=O)C2CC(=O)NC2CCCCCC2)cc1 (stereo not given)	12%	3	-4%	-12%	-2.2%	5	-3.2
CCOc1ccc(NC(=O)CC2C(=O)N(c3ccccc3)C(=O)N2Cc2ccco2)cc1 (stereo not given)	-5%	0	9%	-17%[15.4 µM]	25µM*	8	3.0
CCOC(=O)c1ccc(NC(=O)CCS(=O)(=O)c2ccc(Br)s2)cc1	-15%	5	1%	-26%	32µM*	0	1.7
Cc1cc(C)c[n+](-c2nc3ccccc3nc2[N-]S(=O)(=O)c2ccc(Cl)cc2)c1	10%	-1	10%	-45%[inhibitor]	1.3%	8	?
Cc1cc(C)n2ncc(C(=O)NCc3ccc(Cl)cc3)c2n1	11%	-4	4%	-8%	?	-6	-1.9
COc1ccc(S(=O)(=O)N2CCC(C(=O)N[C@@H](C)C(=O)NCc3ccccn3)CC2)cc1	.	4	.	12%	0.9%	.	.
CCCCOc1ccc(C(=O)N2CC(C)OC(C)C2)cc1 (stereo not given)	-10%	-2	13%	13%	-1.9%	-17	2.9
Cc1ccc(NC(=O)c2ccc(F)c(S(=O)(=O)N3CCOCC3)c2)cc1F	35µM*	-14	7%	-46%[inhibitor]	-1.4%	-8	2.0
Cc1cccc(C)c1NC(=O)CSc1nnc(-c2ccoc2C)n1C	13%	23	19%	?	0.8%	6	0.1
Cn1c(N)c(C(=O)COC(=O)c2ccc(-c3ccccc3)cc2)c(=O)n(C)c1=O	-11%	7	.	30%	.	.	.
COc1cc(C=Nc2cccc([N+](=O)[O-])c2C)ccc1OC(C)=O	5%	-1	10%	7%	-1.9%	-3	1.5
CC(C)(C)SCCNC(=O)/C=C/c1ccc([N+](=O)[O-])cc1	-12%	-4	-19%	-15%	-0.6%	-42	.
O=C(Cc1ccc([N+](=O)[O-])cc1)N1CCCCCC1	15%	-21	8%	-26%[15.4 µM]	.	-16	3.6
Cc1cc(F)ccc1NCc1cccnc1	-15%	0	6%	-15%	-0.9%	1	-1.9
CCc1ccc(C(=O)c2oc3nc(C)cc(C)c3c2N)cc1	?	2	-15%	-2%	-12%	-32	-0.5
Cc1ccc(NC(=O)CN2C(=O)NC3(CCC(C)CC3)C2=O)c(Cl)c1 (stereo not given)	-3%	-1	-9%	4%	-0.4%	1	2.6
COc1ccc(CCN2C(=O)NC(NS(=O)(=O)c3ccc(N)cc3)(C(F)(F)F)C2=O)cc1OC (stereo not given)	15%	-6	-4%	0%	-1.5%	-11	4.4
The list continues.
SMILES	gsp antagonist	CtBP-E1A blk	Sfp PPTase inh	gsp agonist	ClpP mod	TRPV1 potentiator	Menin-MLL FL inh
O=C(COC(=O)CCSc1ccccc1Cl)NCc1ccco1	-9%	-9	-12%	-22%[15.4 µM]	.	-1	5.3
O=C(Nc1cccc(Cl)c1)c1cnccn1	7%	2	8%	5%[15.4 µM]	-0.3%	3	-2.1
O=C1c2cccc(OCC(=O)N3CCCc4ccccc43)c2CCN1Cc1ccccc1	-2%	-3	?	-10%	-1.9%	-15	-1.4
CC(=O)c1sc(NC(=O)C2CCN(C(=O)c3ccccc3C)CC2)nc1-c1ccccc1	?	-4	.	?	-4.0%	0	.
COc1cc(/C=N/NC(=O)c2cnccn2)cc(OC)c1OC	20%	1	-5%	2%[15.4 µM]	1.7%	-1	26
COc1ccc(C2C=C(C34CC5CC(CC(C5)C3)C4)NC(=S)N2)cc1OC (stereo not given)	-21%	?	-7%	?	-15%	-3	5.3
CCOC(=O)c1cccc(NC(=O)CSc2nncn2-c2ccccn2)c1	-4%	1	3%	12%[15.4 µM]	.	3	-2.8
O=C(NC1CCCCC1c1ccccc1)c1ccccc1 (stereo not given)	14%	5	.	4%	-1.3%	.	.
COC(=O)c1cccc(S(=O)(=O)N2CCN(c3nc4ccccc4s3)CC2)c1	-1%	1	13%	?	0.6%	9	-2.5
COCCC(=O)N1CCC(Oc2ccc(C(=O)N3CCCCC3COC)cc2)CC1 (stereo not given)	24%	10	6%	11%	1.5%	8	.
CC(=O)CCCCn1cnc2c1c(=O)n(C)c(=O)n2C	.	.	16%	.	.	-1	0.2
O=c1c2cc3ccccc3n2cnn1Cc1ccccc1F	-14%	0	?	?	?	2	4.9
CC(C)(C)c1ccc(-c2nnc3sc(-c4ccncc4)nn23)cc1	-7%	-9	-26%	-16%	-5.4%	2	3.8
CC(NC(=O)COC(=O)C1CCC1)c1ccccc1 (stereo not given)	4%	-9	.	-26%[15.4 µM]	.	-10	.
CC(=O)OCC(=O)[C@H]1CC[C@H]2[C@@H]3CCC4=CC(=O)CC[C@]4(C)[C@H]3CC[C@]12C	-2%	-26	-13%&-19%	.	-4.1%	-5	-2.5&-3.6
O=C(Nc1ccccc1C(F)(F)F)c1cc(S(=O)(=O)N2CCOCC2)ccc1F	6%	-16	14%	25%	-1.4%	-6	2.9
CCCN(CC1COc2ccccc2O1)C(=S)Nc1ccc(C)cc1 (stereo not given)	-6%	-2	16%	-15%	-5.4%	-5	3.8
CCN(CC(=O)Nc1ccc(NC(C)=O)cc1)C(=O)Cc1ccc(Cl)c(Cl)c1	10%	-9	11%	-2%[15.4 µM]	.	-5	-2.6
CCc1ccc(Nc2nc(C)cc(C)c2C(N)=O)cc1	-15%	2	15%	3%[15.4 µM]	0.1%	-1	1.5
Cc1ccc(CN2CCN(Cc3cn[nH]c3-c3cccc(F)c3)CC2CCO)o1 (stereo not given)	5%	-1	-13%	-8%[15.4 µM]	.	6	2.9
COc1ccc(-c2noc(CN(C(=O)c3ccc(OC(C)=O)cc3)C(C)C)n2)cc1OC	-6%	-3	5%	10%	1.3%	9	4.9
Nc1nc(Nc2ccccc2)n[nH]1	-4%	.	15%	?	-0.7%	-2	4.7
CCOc1ccccc1CN1CCNC(=O)C1CC(=O)N(C)CCc1ccccn1 (stereo not given)	11%	-3	8%	0%	-1.6%	-2	-2.2
Cc1cccc(NC(=O)C2CCN(S(=O)(=O)c3cccc4cccnc34)CC2)c1	?	-8	0%	1%	-0.2%	.	1.0
C=CCN(CC=C)CC(O)CN(c1cc([N+](=O)[O-])ccc1OC)S(=O)(=O)c1ccccc1 (stereo not given)	9%	9	79µM*	-13%[15.4 µM]	0.0%	-13	0.6

Three of the entries above in order of the CtBP-E1A blk value, largest number first.
structure | CtBP-E1A blk | Sfp PPTase inh | gsp agonist | Menin-MLL FL inh
COCCC(=O)N1CCC(Oc2ccc(C(=O)N3CCCCC3COC)cc2)CC1 (stereo not given) | 10 | 6% | 11% | .
CCN(CC(=O)Nc1ccc(NC(C)=O)cc1)C(=O)Cc1ccc(Cl)c(Cl)c1 | -9 | 11% | -2%[15.4 µM] | -2.6
CC(=O)OCC(=O)[C@H]1CC[C@H]2[C@@H]3CCC4=CC(=O)CC[C@]4(C)[C@H]3CC[C@]12C | -26 | -13%&-19% | . | -2.5&-3.6

Next part
SMILES	gsp antagonist	CtBP-E1A blk	Sfp PPTase inh	gsp agonist	ClpP mod	TRPV1 potentiator	Menin-MLL FL inh
CCOc1ccc(NC(=S)N(CCN2CCOCC2)Cc2cc3cc4c(cc3[nH]c2=O)OCCO4)cc1	0%	-27	2%	-12%	3.8%	-20	3.2
Cc1cccc(N2C(=O)c3ccc(C(=O)Nc4ccccn4)cc3C2=O)c1	-12%	0	14%	-7%	.	-1	0.9
CCCCN(C(=O)/C=C/c1ccco1)c1c(N)n(CC(C)C)c(=O)[nH]c1=O	.	-22	-1%	-6%[15.4 µM]	.	28	6.6
CC(=O)N1CCc2cc(Br)cc(S(=O)(=O)NCCN3CCCCC3C)c21 (stereo not given)	-3%	4	15%	-16%	0.9%	5	1.3
O=C(COC(=O)/C=C/c1ccc(S(=O)(=O)N2CCOCC2)cc1)NCc1ccc(Cl)cc1	7%	4	15%	-60%[inhibitor]	0.7%	12	-0.9
O=C(O/N=C1\CCCc2ccccc21)C1CC1	5%	-1	18%	16%[15.4 µM]	-1.3%	24	-0.6
Cc1noc(C)c1S(=O)(=O)N1CCCC(C(=O)Nc2cccnc2)C1 (stereo not given)	8%	-1	9%	?	0.4%	-4	4.6
O=[N+]([O-])c1cc2c(cc1/C=N/n1cnnc1)OCO2	1%	-7	3%	25%	-6.6%	-6	0.3
COc1ccc(C(=O)N/C(=C\c2cc(OC)c(OC)cc2[N+](=O)[O-])C(=O)NCCO)cc1	0%	2	71µM*	-1%[15.4 µM]	.	-12	-1.8
Cc1ccc(O)c(NC(=S)NC(=O)c2ccc(-c3ccc(Cl)cc3)o2)c1	0%	-8	.	4%	-0.8%	.	.
O=C(COC(=O)COc1cccc2ccccc12)NCC(F)(F)F	1%	-8	15%	-2%[15.4 µM]	.	-6	-1.4
Cc1cc(=O)oc2cc(OC(C(=O)O)c3ccccc3)ccc12 (stereo not given)	5%	-19	10%	-39%[inhibitor]	.	-7	7.2
COc1cc(/C=C/C(=O)O)cc(S(=O)(=O)NNC(=O)c2cc(C)oc2C)c1OC	7%	-16	.	9%	.	.	.
O=C(CN(CC1CCCO1)C(=O)CCC(=O)Nc1ccccn1)NCc1ccccc1 (stereo not given)	7%	0	31%[activator]	-11%	0.3%	3	0.4
